High-throughput results (PubChem BioAssay)
CFTR F508del: total CFTR protein upregulators, primary screen, cell-based, HeLa F508del-CFTR, immunofluorescence, viability (AID 1224863); actives 0.1% (n = 10,000); calls, or highest fold increase where a dose series was run; HeLa F508del-CFTR, immunofluorescence total CFTR, 24 h; by the record results were divided by relative cell number; some inactives read as strong as hits; in the data nearly all actives have a first-pass fold increase above 1.5; a few of its hits are not listed in these tables;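 note: total CFTR protein by anti-CFTR immunofluorescence in fixed cells; first pass at 25 µM or 10 µg/mL by library and series up to twice that; 1 = untreated cells; first-pass hits also needed half or more of the cells alive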
CFTR F508del fold 25 µM: recorded beside CFTR F508del, whose call it bears; fold increase; measured here: primary screen single dose 25 uM; library dosed in µM
CFTR F508del fold 10 ug/mL: recorded beside CFTR F508del, whose call it bears; fold increase; measured here: primary screen 10 ug/mL
CFTR F508del viability 25 µM: also measured in CFTR F508del; calls as there; viability, %; measured here: primary viability 25 uM; library dosed in µM;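 0% = killed and 100% = untreated cells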
CFTR F508del viability 10 ug/mL: further read-out of CFTR F508del, marked with its call; viability, %; measured here: primary viability 10 ug/mL;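 0% = killed and 100% = untreated cells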
* hit, by the source's call; i = inactive; / = no result given; & = joins results of further samples.

SMILES	CFTR F508del	CFTR F508del fold 10 ug/mL	CFTR F508del viability 10 ug/mL	others
CCOC(=O)C1=C(COCCN)NC(C)=C(C(=O)OC)C1c1ccccc1Cl (stereo unspecified)	i	/	/	CFTR F508del fold 25 µM=1.2&0.79&1.1;CFTR F508del viability 25 µM=83&64&105
CONC(=O)c1cc(F)cc(F)c1	i	0.99	100
C[C@H]1CC2C3CCC4=CC(=O)C=C[C@]4(C)[C@@]3(F)[C@@H](O)C[C@]2(C)[C@@]1(O)C(=O)COP(=O)(O)O (stereo partly specified)	i	/	/	CFTR F508del fold 25 µM=1.3;CFTR F508del viability 25 µM=79
CC(=O)c1c(C)[nH]c(C(=O)CSc2nnc(C(C)C)n2C2CC2)c1C	i	1	83
Cn1c(SCc2cc(=O)n3ccccc3n2)nc2ccccc21	i	1.1	97
CC(=O)OCC(=O)[C@@]1(O)CC[C@H]2[C@@H]3CCC4=CC(=O)CC[C@]4(C)[C@H]3C(=O)C[C@@]21C	i	/	/	CFTR F508del fold 25 µM=1.1;CFTR F508del viability 25 µM=76
CN(Cc1ccc2c(c1)OCO2)S(=O)(=O)c1cc2c(cc1[N+](=O)[O-])OCCCO2	i	1	77
CC(=O)Oc1ccccc1C(=O)Nc1ncc([N+](=O)[O-])s1	i	/	/	CFTR F508del fold 25 µM=0.64&0.84;CFTR F508del viability 25 µM=25&50
Brc1cccc(OCCOc2ncnc3scc(-c4ccccc4)c23)c1	i	0.89	88
O=C(OCn1nnc2ccccc2c1=O)c1ccsc1	i	1	101
Cn1c(SCc2ccc3c(c2)OCO3)nnc1-c1ccncc1	i	1	84
Cc1cc2nc(N(C)Cc3ccccc3)c3ccccc3n2n1	i	1.1	79
CC(O)CC(Sc1nccc(C(F)(F)F)n1)C(=O)O (stereo unspecified)	i	1.1	97
C=CCn1c(SCC(=O)c2cc(C)n(C)c2C)nc2ccsc2c1=O	i	1.1	101
CCOC(=O)CC(=O)N1CCSC1COc1ccccc1OC (stereo unspecified)	i	/	/	CFTR F508del fold 25 µM=0.95;CFTR F508del viability 25 µM=103
O=C(COc1ccc2ccc(=O)oc2c1)Nc1ccc2c(c1)OCCCO2	i	1.1	108
COc1ccc(S(=O)(=O)Nc2ccc(OC)c(S(=O)(=O)N3CCCCC3)c2)cc1OC	i	0.92	93
CCOC(=O)c1cnc(SC(CC)C(=O)Nc2cc(C)on2)nc1N (stereo unspecified)	i	0.93	83
CCCN1C(=O)C(=O)N(CN2CCCC2c2ccc(OCC)cc2)C1=O (stereo unspecified)	i	1	93
c1ccc(-c2cc(CSc3nnnn3C3CCCC3)on2)cc1	i	0.99	87
COC(=O)c1ccoc1Cn1nnn(-c2cccs2)c1=O	i	0.98	93
CC[C@H]1OC(=O)[C@H](C)[C@@H](O[C@H]2C[C@@](C)(OC)[C@@H](O)[C@H](C)O2)[C@H](C)[C@@H](O[C@@H]2O[C@H](C)C[C@H](N(C)C)[C@H]2O)[C@](C)(O)C[C@@H](C)/C(=N\OCOCCOC)[C@H](C)[C@@H](O)[C@]1(C)O	i	/	/	CFTR F508del fold 25 µM=1.4;CFTR F508del viability 25 µM=106
O=C1CCN(c2ncnc3sc4c(c23)CCCC4)CCN1	i	0.98	101
CCCC1NC(=O)N(CC(=O)c2cc(C)n(CCC(C)C)c2C)C1=O (stereo unspecified)	i	0.96	89
Cc1c(Nc2ncccc2C(=O)O)cccc1C(F)(F)F	i	/	/	CFTR F508del fold 25 µM=1;CFTR F508del viability 25 µM=98
More results follow:
SMILES	CFTR F508del	CFTR F508del fold 10 ug/mL	CFTR F508del viability 10 ug/mL	others
O=C(C1=C(O)C(=O)N(CCN2CCOCC2)C1c1cccnc1)c1ccco1 (stereo unspecified)	i	1	78
N#Cc1nc(C2CC2)oc1N1CCN(C(=O)C2CCCC(C(F)(F)F)C2)CC1 (stereo unspecified)	i	0.96	79
O=C1NC2(CCCC2)C(=O)N1CN1CCC(c2nc3ccccc3s2)CC1	i	0.99	99
C#CCN(CC(F)(F)F)S(=O)(=O)c1ccc2c(c1)CCC2	i	0.93	90
CC1Oc2ccccc2OC1C(=O)Nc1c(C(=O)N2CCOCC2)oc2ccccc12 (stereo unspecified)	i	1.1	90
Clc1ccc2nnn(OCc3cc4c(cc3Br)OCCO4)c2c1	i	1.1	85
Cc1cc(C(=O)CSc2n[nH]c(=O)n2C2CC2)c(C)n1CC(F)(F)F	i	1.1	89
CN(Cc1ccc(C(F)(F)F)cc1)CN1C(=O)C(=O)N(C)C1=O	i	0.94	88
Cc1nc2ncnn2c(C)c1CCC(=O)NCC1(N2CCOCC2)CCCCC1	i	0.9	91
CC1CCCN(S(=O)(=O)NCCOc2ccc(F)cc2)C1 (stereo unspecified)	i	0.99	101
N#Cc1cn(C2CC2)c(=O)n(Cc2ccc(Cl)s2)c1=O	i	0.94	98
O=C(OCC(=O)N1CCc2ccccc21)c1cc(O)c2ccccc2c1O	i	1.1	86
Cn1ccnc1CN(C1CC1)S(=O)(=O)c1cn(C)c(=O)n(C)c1=O	i	1.1	102
COc1cc(C2=NNC(=NC(C)C)SC2)cc(OC)c1OC	i	1.1	97
Cc1cc2nnc(SCc3nc(-c4ccco4)no3)n2c(C)n1	i	1.1	93
O=C(O)c1cccnc1	i	/	/	CFTR F508del fold 25 µM=1.1&0.95;CFTR F508del viability 25 µM=94&115
Cn1cnc2c1c(=O)n(CCCSc1nc3ccccc3c(=O)n1-c1ccccc1)c(=O)n2C	i	0.97	104
COC(=O)C1(NC(=O)c2ccc(S(=O)(=O)N3CCOCC3)o2)CCC(C)CC1 (stereo unspecified)	i	0.99	86
COCCCn1c(=C(C#N)C#N)s/c(=C\c2ccc(C)s2)c1=O	i	0.95	97
O=C1N=C(O)CN1/N=C/c1ccc(-c2ccc([N+](=O)[O-])cc2)o1	1.2	/	/	CFTR F508del fold 25 µM=1.8;CFTR F508del viability 25 µM=104
CC1CN(Cc2nc(-c3ccc(Cl)cc3)no2)CCO1 (stereo unspecified)	i	1	92
Cn1cccc1C(=O)NC(=O)CSc1nnnn1C(C)(C)C	i	0.99	101
Cc1ccc(S(=O)(=O)c2ccc(CSc3nnnn3C(C)C)cc2)cc1	i	0.96	93
COC(=O)[C@@H]1CC2=CC(=O)CC[C@]2(C)[C@@]23O[C@@H]2C[C@@]2(C)[C@@H](CC[C@@]24CCC(=O)O4)[C@H]13	i	/	/	CFTR F508del fold 25 µM=1;CFTR F508del viability 25 µM=91
CCc1cc(C(=O)N2CSCC2C(=O)N2CCCCC2)sc1C (stereo unspecified)	i	0.99	93
Next section.
SMILES	CFTR F508del	CFTR F508del fold 10 ug/mL	CFTR F508del viability 10 ug/mL	others
O=C(OC[C@H]1O[C@H](OC(=O)c2cc(O)c(O)c(OC(=O)c3cc(O)c(O)c(O)c3)c2)[C@H](OC(=O)c2cc(O)c(O)c(OC(=O)c3cc(O)c(O)c(O)c3)c2)[C@@H](OC(=O)c2cc(O)c(O)c(OC(=O)c3cc(O)c(O)c(O)c3)c2)[C@@H]1OC(=O)c1cc(O)c(O)c(OC(=O)c2cc(O)c(O)c(O)c2)c1)c1cc(O)c(O)c(OC(=O)c2cc(O)c(O)c(O)c2)c1	3.6	/	/	CFTR F508del fold 25 µM=1.9;CFTR F508del viability 25 µM=83
COc1ccc(OC)c(C2CCCN2CN2C(=O)C(=O)N(C3CC3)C2=O)c1 (stereo unspecified)	i	1	97
O=C1NCC(CSc2ncnc3sc(-c4ccccc4)cc23)O1 (stereo unspecified)	i	1	87
CC(C)CCCC(C)NC(C)C (stereo unspecified)	i	/	/	CFTR F508del fold 25 µM=1.1&1;CFTR F508del viability 25 µM=84&90
CCS(=O)(=O)N1CCC(Nc2ncnc3c2oc2ccccc23)CC1	i	0.93	81
CC/C(=C(/CC)c1ccc(O)cc1)c1ccc(O)cc1	i	/	/	CFTR F508del fold 25 µM=0.63&0.71;CFTR F508del viability 25 µM=81&104
C/C=C/C=C/C(=O)Nc1nc(C(C)C)cs1	i	0.96	87
CSc1ccc(N2CC(C(=O)NCC3CCN(c4ccccc4)C3)CC2=O)cc1 (stereo unspecified)	i	1	98
CCn1c(SCCCC#N)nc2scc(-c3ccco3)c2c1=O	i	0.93	99
Cc1cc(NC(=O)CSc2nnnn2C2CCCC2)n(C)n1	i	1.1	107
CCOC(=O)c1sc(N)c(C(=O)OCC)c1CSc1nnnn1C1CCCC1	i	0.9	86
C[C@H](O)[C@@H]1C(=O)N2C(C(=O)O)=C(S[C@@H]3CN[C@H](CNS(N)(=O)=O)C3)[C@@H](C)[C@@H]12	i	/	/	CFTR F508del fold 25 µM=0.94;CFTR F508del viability 25 µM=109
CC(C)C(C)(C#N)NC(=O)CSc1nnc(-c2cccs2)o1 (stereo unspecified)	i	1.1	113
O=C1/C(=C/c2cccc(F)c2)CSc2c(F)cccc21	i	0.68	45
CCCCCc1nnc(NC(=O)C(NC(C)=O)C(C)C)s1 (stereo unspecified)	i	1.1	93
O=C(CCNC(=O)c1cccs1)NC1C2CC3CC(C2)CC1C3 (stereo unspecified)	i	1.1	111
COc1cc2c(cc1OC)CN(S(=O)(=O)c1c(C)n[nH]c1C)CC2	i	1.1	98
CNC(=O)Oc1ccc2c(c1)[C@]1(C)CCN(C)[C@@H]1N2C	i	/	/	CFTR F508del fold 25 µM=1&1.1;CFTR F508del viability 25 µM=97&96
CCc1ccc(C(=O)NC2CCN(C3CC3)CC2)o1	1.3	1.6	96
O=S(=O)(c1ccc(OCCSc2ccc(F)cc2F)cc1)N1CCOCC1	i	0.9	88
CC(=O)c1c(C)[nH]c(C(=O)C(C)N2CCN(C(=O)C3CC3)CC2)c1C (stereo unspecified)	i	0.82	78
CCN(CC)Cc1nc2sc3c(c2c(=O)[nH]1)CCC3	i	0.95	87
CC1CCC(NS(=O)(=O)c2ccc3c(c2)OCCO3)CC1 (stereo unspecified)	i	0.89	94
Cc1ccc(C(=O)OCC(=O)c2ccc3c(c2)CCC(=O)N3)s1	i	1.2	102

Reprinted from the entries so far (21 entries):
SMILES	CFTR F508del	CFTR F508del fold 10 ug/mL	CFTR F508del viability 10 ug/mL	others
CC(C)CCCC(C)NC(C)C (stereo unspecified)	i	/	/	CFTR F508del fold 25 µM=1.1&1;CFTR F508del viability 25 µM=84&90
CCS(=O)(=O)N1CCC(Nc2ncnc3c2oc2ccccc23)CC1	i	0.93	81
CC/C(=C(/CC)c1ccc(O)cc1)c1ccc(O)cc1	i	/	/	CFTR F508del fold 25 µM=0.63&0.71;CFTR F508del viability 25 µM=81&104
C/C=C/C=C/C(=O)Nc1nc(C(C)C)cs1	i	0.96	87
CSc1ccc(N2CC(C(=O)NCC3CCN(c4ccccc4)C3)CC2=O)cc1 (stereo unspecified)	i	1	98
CCn1c(SCCCC#N)nc2scc(-c3ccco3)c2c1=O	i	0.93	99
Cc1cc(NC(=O)CSc2nnnn2C2CCCC2)n(C)n1	i	1.1	107
CCOC(=O)c1sc(N)c(C(=O)OCC)c1CSc1nnnn1C1CCCC1	i	0.9	86
C[C@H](O)[C@@H]1C(=O)N2C(C(=O)O)=C(S[C@@H]3CN[C@H](CNS(N)(=O)=O)C3)[C@@H](C)[C@@H]12	i	/	/	CFTR F508del fold 25 µM=0.94;CFTR F508del viability 25 µM=109
CC(C)C(C)(C#N)NC(=O)CSc1nnc(-c2cccs2)o1 (stereo unspecified)	i	1.1	113
O=C1/C(=C/c2cccc(F)c2)CSc2c(F)cccc21	i	0.68	45
CCCCCc1nnc(NC(=O)C(NC(C)=O)C(C)C)s1 (stereo unspecified)	i	1.1	93
O=C(CCNC(=O)c1cccs1)NC1C2CC3CC(C2)CC1C3 (stereo unspecified)	i	1.1	111
COc1cc2c(cc1OC)CN(S(=O)(=O)c1c(C)n[nH]c1C)CC2	i	1.1	98
CNC(=O)Oc1ccc2c(c1)[C@]1(C)CCN(C)[C@@H]1N2C	i	/	/	CFTR F508del fold 25 µM=1&1.1;CFTR F508del viability 25 µM=97&96
CCc1ccc(C(=O)NC2CCN(C3CC3)CC2)o1	1.3	1.6	96
O=S(=O)(c1ccc(OCCSc2ccc(F)cc2F)cc1)N1CCOCC1	i	0.9	88
CC(=O)c1c(C)[nH]c(C(=O)C(C)N2CCN(C(=O)C3CC3)CC2)c1C (stereo unspecified)	i	0.82	78
CCN(CC)Cc1nc2sc3c(c2c(=O)[nH]1)CCC3	i	0.95	87
CC1CCC(NS(=O)(=O)c2ccc3c(c2)OCCO3)CC1 (stereo unspecified)	i	0.89	94
Cc1ccc(C(=O)OCC(=O)c2ccc3c(c2)CCC(=O)N3)s1	i	1.2	102

This is a subset; rates above refer to the full screens.
